Bioassay records (PubChem BioAssay)
Env fusion inh – inhibitors of HIV-1 Env-driven cell-cell fusion, primary screen, HeLa-JRFL effector, CEM21 target cells, luciferase | inhibition, % at 12.3 µM | AID 651610, 2012 | actives 1.1% (n = 360,000);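 active means mean replicate inhibition score of at least 50 and every replicate individually at or above 50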;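 further: 0% = plate neutral controls and 100% = maraviroc near 300 nM; one replicate is shown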
Yeast UUG start – modulators of yeast start codon fidelity, primary screen, whole organism, S. cerevisiae, single point, plate reader; S. cerevisiae UUG-firefly luciferase reporter, luminescence/redox ratio; activity score, % at 18.7 µM; actives 0.13% (n = 350,000);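 active means replicate mean at a twofold rise or more, about +100% in these data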;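 further: firefly luciferase made from a UUG start codon reports start codon fidelity; reporter light over untreated wells divided by growth signal over untreated wells; some hits fall short of that in this replicate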
MT1-MMP act inh – blockers of MT1-MMP proenzyme processing, primary screen, HT1080 RFP-PRO-GFP cells, GFP/RFP fluorescence | AID 651647, 2012 | actives 0.061% (n = 360,000) | GFP/RFP ratio change, % at 20 µM | GFP/RFP ratio fluorescence, overnight; percent of plate control window, DMSO zero;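 active means GFP/RFP ratio change of at least 30% with cell ATP level not reduced by more than half and red fluorescence within 50% of control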; further: strong numbers were not always called active
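Assay system: HT1080 RFP-PRO-GFP cells. Benchmarks: DMSO vehicle wells and RFP-L50D-GFP reporter cell wells. Times: overnight cell settling, then overnight compound exposure, 37 °C, 5% CO2. Compound: 20 µM single dose, 1% DMSO. Read-out basis: GFP/RFP fluorescence ratio.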
eIF4H FP inh – human eIF4H binding inhibitors, primary screen, translation initiation inhibitor project, biochemical, uHTS, fluorescence polarization. Eukaryotic translation initiation factor 4H (Homo sapiens), Q15056. eIF4H fluorescence polarization binding assay. inhibition, % at 35 µM. actives 0.94% (n = 290,000);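 active means 50% or more with normal probe brightness, or confirmed in later tests; about a fifth of its hits are not listed in these tables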;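 further: calls also rest on retests at 20 µM and on dose response follow-up; 0% = protein and probe with vehicle and 100% = probe without protein; strong numbers were not always called active; many hits fall short of the cut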
CSC inhib – cancer stem cell viability inhibitors, primary screen, luminescence. cancer stem cell-like cells viability. inhibition, % at 7.5 µM. actives 1.1% (n = 300,000);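 active means mean at 75% or more and at least half the replicates too; tested in HMLE shEcad cells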;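 further: 0% = median of negative and 100% = median of positive control wells; the first replicate is given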
Rce1 inhib – yeast Rce1p protease inhibitors, primary screen, biochemical, fluorescence, cell-free homogeneous. yeast membranes, quenched prenylated peptide cleavage fluorescence. calls only. actives 0.27% (n = 290,000). AID 2563, 2010;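 active means fall in fluorescence gain of 50% or more versus controls, with final raw signal at or below 3038400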;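 further: plate controls were neutral control wells for no effect and wells lacking membranes for full effect; tested at 10 µM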
Target sequence (Q03530 whole entry, looked up): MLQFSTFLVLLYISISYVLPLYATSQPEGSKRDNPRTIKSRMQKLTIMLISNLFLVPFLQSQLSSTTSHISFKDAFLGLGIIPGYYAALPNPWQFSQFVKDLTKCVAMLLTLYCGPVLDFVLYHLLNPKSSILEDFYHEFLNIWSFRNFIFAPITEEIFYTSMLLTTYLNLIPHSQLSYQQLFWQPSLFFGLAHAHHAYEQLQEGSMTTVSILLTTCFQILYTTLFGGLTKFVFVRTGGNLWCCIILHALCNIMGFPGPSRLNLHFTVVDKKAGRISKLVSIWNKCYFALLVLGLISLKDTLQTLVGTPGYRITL
PABP polyA inh – PABP poly(A) RNA binding inhibitors, primary screen, biochemical, fluorescence polarization, uHTS | inhibition, % at 35 µM | AID 2014, 2009 | Polyadenylate-binding protein 1 (Homo sapiens), P11940 | actives 1% (n = 290,000);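 active means 50% or more with normal probe brightness, or confirmed in later tests; about a fifth of its hits are not listed in these tables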;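 further: calls also rest on retests at 20 µM and on dose response follow-up; controls were probe without protein and protein plus probe with vehicle; some compounds called inactive have numbers as strong as hits; many hits fall short of the cut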
Target sequence (P11940 whole entry, looked up): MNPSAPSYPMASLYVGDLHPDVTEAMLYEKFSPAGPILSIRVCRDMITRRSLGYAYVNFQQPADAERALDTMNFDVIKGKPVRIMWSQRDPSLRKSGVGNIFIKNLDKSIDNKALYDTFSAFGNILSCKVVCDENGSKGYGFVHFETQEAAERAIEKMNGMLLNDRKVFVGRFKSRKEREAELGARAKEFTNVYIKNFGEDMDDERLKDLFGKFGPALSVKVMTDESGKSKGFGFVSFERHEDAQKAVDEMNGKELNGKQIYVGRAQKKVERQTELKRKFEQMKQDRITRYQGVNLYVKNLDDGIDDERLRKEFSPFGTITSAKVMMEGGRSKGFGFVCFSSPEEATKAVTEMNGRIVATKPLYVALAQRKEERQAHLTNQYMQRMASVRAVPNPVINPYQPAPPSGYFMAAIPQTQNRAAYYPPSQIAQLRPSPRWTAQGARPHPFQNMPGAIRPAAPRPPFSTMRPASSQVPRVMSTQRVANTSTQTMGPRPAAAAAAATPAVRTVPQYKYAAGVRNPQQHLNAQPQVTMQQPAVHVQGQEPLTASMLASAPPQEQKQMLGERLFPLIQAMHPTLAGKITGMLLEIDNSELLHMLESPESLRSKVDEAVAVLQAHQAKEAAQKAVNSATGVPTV
eIF4H FP inh retest – also measured in eIF4H FP inh; calls as there; inhibition, %; compound at 20 µM; confirmation average;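 mean of two retest wells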
PABP polyA inh retest – also measured in PABP polyA inh; calls as there; inhibition, %; compound at 20 µM; confirmation repeats;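 mean of two retest wells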
MT1-MMP act inh RFP – also measured in MT1-MMP act inh; calls as there; RFP signal change, %; measured here: RFP expression control read;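 0 = vehicle wells; hits needed this value within 50% of zero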
An asterisk follows results filed as active; & = joins results of further samples; [ ] = another dose, or the depositor's remark.

Screening CC1=Nc2cccc3cccc(c23)N1 returned Env fusion inh -68, Yeast UUG start -17, MT1-MMP act inh 1, eIF4H FP inh 49, CSC inhib 9, Rce1 inhib inactive, PABP polyA inh 15 and MT1-MMP act inh RFP -7.
`Cc1cc(NC(=O)c2cc(-c3ccco3)on2)no1` gave Env fusion inh -44, Yeast UUG start -19, MT1-MMP act inh 0, eIF4H FP inh -7, CSC inhib 14, Rce1 inhib inactive, PABP polyA inh 1 and MT1-MMP act inh RFP 6.
Cc1ccn2c(C(=O)c3ccc(Cl)cc3)cnc2c1 was read as Env fusion inh -234, Yeast UUG start -28, MT1-MMP act inh 3, eIF4H FP inh -5, CSC inhib -1, Rce1 inhib inactive, PABP polyA inh 7 and MT1-MMP act inh RFP 7.
Cc1cc(C(=O)Nc2cccc3c2O[C@H](CN(C)CC2CC2)[C@@H](C)CN([C@H](C)CO)C3=O)n(C)n1 was read as Env fusion inh 1[16.7 µM], Yeast UUG start 2&0, MT1-MMP act inh -1, CSC inhib 10 and MT1-MMP act inh RFP 1.
`N#Cc1c(-c2ccccc2)ccn(Cc2ccccc2Cl)c1=O` gave MT1-MMP act inh 2, eIF4H FP inh -5, CSC inhib -14, Rce1 inhib inactive, PABP polyA inh -7 and MT1-MMP act inh RFP -2.
COc1ccccc1C(=O)NCCC(=O)NC1CCCC(C)C1C (stereo not given) was read as Env fusion inh 58*, Yeast UUG start -10, MT1-MMP act inh 7, CSC inhib -9, Rce1 inhib inactive and MT1-MMP act inh RFP 1.
For Cc1nc(SCc2ccc(C(=O)O)cc2)nc2c1CCCC2 the results were Env fusion inh 4, MT1-MMP act inh -5, eIF4H FP inh -8, CSC inhib -1, Rce1 inhib inactive, PABP polyA inh -7 and MT1-MMP act inh RFP -1.
CCN1CCN(c2ccc(S(=O)(=O)N3CCOCC3)cc2NC(=O)/C=C/c2ccc(C)cc2)CC1 was read as MT1-MMP act inh 1, CSC inhib -8, Rce1 inhib inactive and MT1-MMP act inh RFP 1.
Screening COc1ccc(-n2nc3c(N4CCC(C(=O)N5CCC(C)CC5)CC4)nnc(C)c3c2C)cc1 returned Env fusion inh 13, Yeast UUG start 10, MT1-MMP act inh -80, eIF4H FP inh 56, CSC inhib -7, Rce1 inhib inactive, PABP polyA inh 11, eIF4H FP inh retest -6, PABP polyA inh retest -4 and MT1-MMP act inh RFP -4.
CCn1nc(C)c(CN2CCCC(CO)(Cc3ccccc3)C2)c1C (stereo not given) was read as Env fusion inh -5, MT1-MMP act inh -3, eIF4H FP inh -13, CSC inhib 2, Rce1 inhib inactive, PABP polyA inh -3 and MT1-MMP act inh RFP 0.
Screening O=C(NC1CCN(Cc2ccc(F)cc2)CC1)c1ccccc1 returned Env fusion inh 13, Yeast UUG start -22, MT1-MMP act inh 1, eIF4H FP inh -3, CSC inhib 5, Rce1 inhib inactive, PABP polyA inh 7 and MT1-MMP act inh RFP 4.
Cc1sc(NC(=O)/C=C/c2ccco2)c(C(=O)O)c1C was read as Env fusion inh -5, Yeast UUG start -15, MT1-MMP act inh -2, eIF4H FP inh 11, CSC inhib 2, Rce1 inhib inactive, PABP polyA inh -1 and MT1-MMP act inh RFP 0.
CCOC(=O)N1CCN(C(=O)CS(=O)(=O)Cc2nc(-c3ccccc3F)oc2C)CC1 was read as Env fusion inh -4, Yeast UUG start -17, MT1-MMP act inh 3, eIF4H FP inh 3, CSC inhib -2, Rce1 inhib inactive, PABP polyA inh 4 and MT1-MMP act inh RFP -4.
Screening COc1ccc(S(=O)(=O)NCc2ccccn2)cc1NC(=O)c1ccccc1C returned Env fusion inh 16, Yeast UUG start -9, MT1-MMP act inh -2, CSC inhib -6, Rce1 inhib inactive and MT1-MMP act inh RFP -7.
CCCN(C(=O)C1CCCN(c2ncnc3c2nc2n3CCCCC2)C1)c1ccc(F)cc1 (stereo not given) was read as Env fusion inh 12, Yeast UUG start -7, MT1-MMP act inh -2, eIF4H FP inh 0, CSC inhib 5, Rce1 inhib inactive, PABP polyA inh -2 and MT1-MMP act inh RFP -10.
Cc1ccccc1C(=O)NNC(=O)CSc1nnc(-c2ccncc2)n1-c1ccccc1 was read as MT1-MMP act inh 4, eIF4H FP inh -3, CSC inhib 13, Rce1 inhib inactive, PABP polyA inh 10 and MT1-MMP act inh RFP 6.
NS(=O)(=O)c1ccc(CCNC(=O)CSc2nc3ccccc3c(=O)n2CC2CCCO2)cc1 (stereo not given) was read as Env fusion inh 15, Yeast UUG start -11, MT1-MMP act inh 2, eIF4H FP inh 3, CSC inhib -14, Rce1 inhib inactive, PABP polyA inh -12 and MT1-MMP act inh RFP 5.
CN(Cc1c(F)cccc1Cl)C(=O)CNC(=O)c1sc2ccccc2c1Cl was read as Env fusion inh -10, Yeast UUG start 2, MT1-MMP act inh 6, CSC inhib -10, Rce1 inhib inactive and MT1-MMP act inh RFP -3.
Cc1c(Cc2ccccc2)c(=O)oc2cc(OCC(N)=O)ccc12 was read as Env fusion inh 12, Yeast UUG start -5, MT1-MMP act inh -9, eIF4H FP inh -7, CSC inhib -8, Rce1 inhib inactive, PABP polyA inh -14 and MT1-MMP act inh RFP 0.
Screening C[C@@H]1CN([C@@H](C)CO)C(=O)CCCn2nncc2CO[C@@H]1CN(C)C(=O)c1ccccc1 returned Env fusion inh -2, Yeast UUG start -11&1&16, MT1-MMP act inh 1 and MT1-MMP act inh RFP 3.
O=C(NC(=S)N1CCN(Cc2ccccc2)CC1)c1ccco1 was read as Env fusion inh -9, MT1-MMP act inh 0, eIF4H FP inh 3, CSC inhib -7, Rce1 inhib inactive, PABP polyA inh -1 and MT1-MMP act inh RFP 1.
COc1ccc(/C=C2/SC(=O)N(CCC(=O)Nc3ccc(S(=O)(=O)Nc4nccs4)cc3)C2=O)cc1 was read as Env fusion inh -9, MT1-MMP act inh 0, eIF4H FP inh 19, CSC inhib -2, Rce1 inhib inactive, PABP polyA inh 17 and MT1-MMP act inh RFP 0.
`CC(=O)NC(c1cccc(F)c1)c1nc(-c2ccccc2C)cs1` (stereo not given) gave Env fusion inh -13, Yeast UUG start -5, MT1-MMP act inh -3 and MT1-MMP act inh RFP -1.
CN(C)S(=O)(=O)c1ccc(Oc2ccc(S(=O)(=O)N(C)C)cc2)cc1 was read as Yeast UUG start -8, MT1-MMP act inh -9, eIF4H FP inh 12, CSC inhib 10, PABP polyA inh 2 and MT1-MMP act inh RFP -21.
For CCC(C)SCc1nc2ccccc2[nH]1 (stereo not given) the results were MT1-MMP act inh 0, eIF4H FP inh -5, CSC inhib -7, Rce1 inhib inactive, PABP polyA inh 11 and MT1-MMP act inh RFP 2.
`COc1ccccc1CNC(=O)COC(=O)c1cc(=O)[nH]c2ccccc12` gave Env fusion inh 9, Yeast UUG start -6, MT1-MMP act inh 9 and MT1-MMP act inh RFP 4.
`N=c1oc2ccccc2cc1C(=O)N/N=C/c1ccccc1` gave Yeast UUG start -22, MT1-MMP act inh -2, eIF4H FP inh 16, CSC inhib 1, Rce1 inhib inactive, PABP polyA inh -3 and MT1-MMP act inh RFP 4.
`COc1cc(/C=C/C(=O)Nc2ccc3[nH]c(=O)[nH]c3c2)cc(OC)c1OC` gave Env fusion inh -6, MT1-MMP act inh 10, eIF4H FP inh 0, CSC inhib -10, Rce1 inhib inactive, PABP polyA inh -3 and MT1-MMP act inh RFP 3.
CCCCc1nnc(NC(=O)C2CC(=O)N(c3ccc(C)cc3)C2)s1 (stereo not given) was read as Env fusion inh -34, Yeast UUG start 4, MT1-MMP act inh 2, eIF4H FP inh -5, CSC inhib -19, Rce1 inhib inactive, PABP polyA inh -11 and MT1-MMP act inh RFP 0.
For Cc1ccc(NC(=O)NNC(=O)C2CC(c3cccs3)=NO2)cc1 (stereo not given) the results were Env fusion inh 2, Yeast UUG start -3, MT1-MMP act inh 0, eIF4H FP inh -2, CSC inhib -8, Rce1 inhib inactive, PABP polyA inh 1 and MT1-MMP act inh RFP 5.
CCOc1ccc(NCc2cc3c(C(C)(C)C)nn(-c4ccccc4)c3[nH]c2=O)cc1 was read as Yeast UUG start -1, MT1-MMP act inh 1, eIF4H FP inh 18, CSC inhib 21, Rce1 inhib inactive, PABP polyA inh 16 and MT1-MMP act inh RFP 0.
`O=C(CCc1ccccc1)NCCC1=CCCCC1` gave MT1-MMP act inh 5, eIF4H FP inh -2, CSC inhib -8, Rce1 inhib inactive, PABP polyA inh -5 and MT1-MMP act inh RFP 6.
CCOC(=O)Nc1cccc(OCC(=O)Nc2ccccc2OC)c1 was read as Env fusion inh -32, Yeast UUG start -23, MT1-MMP act inh 0, CSC inhib 1, Rce1 inhib inactive and MT1-MMP act inh RFP 1.
For COc1ccccc1C(=O)N/N=C/c1c[nH]c2ccccc12 the results were Env fusion inh -8, MT1-MMP act inh 0, eIF4H FP inh 6, CSC inhib 0, Rce1 inhib inactive, PABP polyA inh 5 and MT1-MMP act inh RFP 4.
Screening CCOc1cc(/C=N/O)ccc1OCc1ccc(C)cc1 returned Env fusion inh -15, MT1-MMP act inh 1, eIF4H FP inh 4, CSC inhib 36, Rce1 inhib inactive, PABP polyA inh 8 and MT1-MMP act inh RFP 2.
For COCCNC(=O)c1cnn2c(C(F)(F)F)cc(-c3ccc(C)cc3)nc12 the results were Env fusion inh -25, Yeast UUG start -11, MT1-MMP act inh -6, eIF4H FP inh -4, CSC inhib -9, Rce1 inhib inactive, PABP polyA inh 6 and MT1-MMP act inh RFP -5.
`CCOC(=O)CCCNS(=O)(=O)c1c(C)ccc2nsnc12` gave Env fusion inh -142, Yeast UUG start -11, MT1-MMP act inh 2, eIF4H FP inh -3, CSC inhib -11, Rce1 inhib inactive, PABP polyA inh -9 and MT1-MMP act inh RFP 2.
CC(C)C(=O)Nc1ccc(C(=O)NN2C(=O)c3ccccc3C2=O)cc1 was read as Env fusion inh 7, Yeast UUG start -9, MT1-MMP act inh 9, eIF4H FP inh -2, CSC inhib 7, Rce1 inhib inactive, PABP polyA inh 4 and MT1-MMP act inh RFP 10.
For CCCCc1nc2sc3c(=O)[nH]c(=S)[nH]c3c2c2c1CCC2 the results were Env fusion inh 4, Yeast UUG start -20, MT1-MMP act inh 2 and MT1-MMP act inh RFP 4.
`O=C1C(Cl)=C(NCc2cccnc2)C(=O)c2ccccc21` gave Env fusion inh -8, Yeast UUG start -28, MT1-MMP act inh -4, eIF4H FP inh -3, CSC inhib 24, Rce1 inhib inactive, PABP polyA inh 13 and MT1-MMP act inh RFP 0.
For Cc1ccc(S(=O)(=O)N(c2ccccc2)C2CCS(=O)(=O)C2)cc1 (stereo not given) the results were Yeast UUG start -19, MT1-MMP act inh 7, eIF4H FP inh -2, CSC inhib 6, Rce1 inhib inactive, PABP polyA inh 10 and MT1-MMP act inh RFP 6.
CCCCNC(=S)NNC(=O)c1cccnc1 was read as Env fusion inh -12, Yeast UUG start -30, MT1-MMP act inh -1, eIF4H FP inh 2, CSC inhib -4, PABP polyA inh 5 and MT1-MMP act inh RFP 0.
Screening Cn1cnc([N+](=O)[O-])c1Oc1ccccc1 returned Env fusion inh 16, MT1-MMP act inh 5, eIF4H FP inh -3, CSC inhib 4, Rce1 inhib inactive, PABP polyA inh 2 and MT1-MMP act inh RFP 1.
